Menin-MLL FL inh: qHTS Assay for Inhibitors Targeting the Menin-MLL Interaction in MLL Related Leukemias: Competition With Fluorescein Labeled MLL-derived Peptide. Fluorescence polarization, fluorescein-MLL peptide displacement from menin. FP activity change, % at 61.4 µM. 290,000 tested, under 10 active. AID 1766, 2009; inconclusive = falling polarisation curve, or a change in total fluorescence; inactive = total fluorescence flat and polarisation flat or rising; no compound was filed as active; the % refers to the polarisation; negative = inhibition;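 further: % of control where 0% means no effect; inhibitors lower the polarisation; unlabelled MLL peptide was the positive control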
Active calls of the source: *; u = inconclusive; & = joins results of further samples; [ ] = dose if it differs, or a comment. This is a subset; the hit share may differ from the screen's.

Cc1cccc(NC(=O)C2CC(=O)NC(Nc3nc4ccccc4s3)=N2)c1 (stereo not given)
  Menin-MLL FL inh: 8.1
CC(=O)OC[C@H]1O[C@@](COC(C)=O)(O[C@H]2O[C@H](COC(C)=O)[C@@H](OC(C)=O)[C@H](OC(C)=O)[C@H]2OC(C)=O)[C@@H](OC(C)=O)[C@@H]1OC(C)=O
  Menin-MLL FL inh: -3.4
CC(C)Cc1nc2oc3c(N4CCN(C)CC4)ncnc3c2c2c1CCCC2
  Menin-MLL FL inh: 2.2
COc1ccc(O[C@H]2C=C[C@@H](c3ccccc3)O[C@@H]2CO/N=C(\C)CCN2CCc3nc(-c4ccccc4)c(-c4ccccc4)cc3C2)cc1
  Menin-MLL FL inh: 3.0[11.7 µM]
CCn1c(=N)c(S(=O)(=O)c2ccc(Cl)cc2)cc2c(=O)n3ccccc3nc21
  Menin-MLL FL inh: 0.7
CC1(C)CC[C@]2(C(=O)O)CC[C@@]3(C)C(=CCC4[C@@]5(C)CCC(O)C(C)(C)C5CC[C@@]43C)C2C1 (stereo not given in full)
  Menin-MLL FL inh: -3.0
CCOC(=O)N/N=C1/C[C@@H](O)[C@@H](O)[C@@H]2[C@@H]3C(=O)N(C[C@@H]4CCCO4)C(=O)[C@H]3CC[C@@H]12
  Menin-MLL FL inh: -0.9[11.7 µM]
COc1ccc(-c2nc3cnc(Oc4ccccc4)nc3n(C3CC3)c2=O)cc1
  Menin-MLL FL inh: -6.3
CCOC(=O)N1CCN(C(=O)CSc2ccc(-c3cccnc3)nn2)CC1
  Menin-MLL FL inh: -6.7
COc1ccc2c(c1OC)C(=O)OC2[C@H]1c2c(cc3c(c2OC)OCO3)CCN1C (stereo not given in full)
  Menin-MLL FL inh: 1.8[24.8 µM]
COc1ccc2c(c1)C(=O)[C@@H](OC(=O)NCCOc1ccccc1)[C@H](c1ccc(OC)c(Br)c1)O2
  Menin-MLL FL inh: 0.7
C=CCN1CCN(c2nc3ccccc3nc2C#N)CC1
  Menin-MLL FL inh: -1.6
COc1cccc(Nc2ncc3nc(-c4ccc(Cl)cc4)c(=O)n(C4CC4)c3n2)c1
  Menin-MLL FL inh: u
O=C(NCCNC1CCN(Cc2ccccc2)CC1)c1cccs1
  Menin-MLL FL inh: -3.6
CCOC(=O)NCCOc1ccc(Oc2ccccc2)cc1
  Menin-MLL FL inh: -11.3

CC1=C(C(N)=O)N2C(=O)[C@@H](NC(=O)Cc3ccccc3)C2SC1 (stereo not given in full)
  Menin-MLL FL inh: -0.9
CCCCCCCCCCCCCCCCCCNC(=O)OCC(COP(=O)([O-])OCC[n+]1ccsc1)OC (stereo not given)
  Menin-MLL FL inh: -0.3
COc1ccccc1CN1CCCC2(CCN(C(=O)c3cnccn3)CC2)C1
  Menin-MLL FL inh: -1.9
Cc1cnc(CNc2ncncc2-c2ccc(C(=O)N(C)C)cc2)cn1
  Menin-MLL FL inh: -11.6
O=C(O)C[C@@H]1NC(=O)[C@H](Cc2ccccc2)NC1=O
  Menin-MLL FL inh: -1.8
Cn1cc(-c2nc3cncnc3n(Cc3ccc(F)cc3)c2=O)c2ccccc21
  Menin-MLL FL inh: 7.1
Cc1cc(O)c2c(c1O)C(=O)C(O)=C(O)C2=O
  Menin-MLL FL inh: u
Cc1ccc(/C=C/C2=C[C@]3(C)C[C@]2(C)[C@H](c2ccc(C)cc2)CC3=O)cc1
  Menin-MLL FL inh: -4.2
CCCCCCCCCCOc1cc2c(=O)c(C(=O)OCC)c[nH]c2cc1OCC
  Menin-MLL FL inh: 0.3
CN(C)c1ccnc(-c2cccc(NS(C)(=O)=O)c2)n1
  Menin-MLL FL inh: -7.8
O=c1cc(-c2ccccc2)oc2c(O)c(O)ccc12
  Menin-MLL FL inh: 1.2
O=[N+]([O-])c1cc2nc(O)c(O)nc2cc1[N+](=O)[O-]
  Menin-MLL FL inh: 0.0
CCCN(CCC)C[C@@H]1CCCCN1CCNC(=O)N1c2ccccc2C(=O)Nc2cccnc21
  Menin-MLL FL inh: 55.5[activator]
CC(C)OCCCNC(=O)C(NS(=O)(=O)c1ccc2c(c1)c(=O)n(C)c(=O)n2C)c1ccccc1 (stereo not given)
  Menin-MLL FL inh: -0.5
O=c1ccc2cc3c([nH]c4ccc(Br)cc43)oc-2c1O
  Menin-MLL FL inh: 22.1

O=S(=O)(O)c1nc2ccccc2n1Cc1cccc2ccccc12
  Menin-MLL FL inh: 1.1
CC(C)=NOCc1ccc(-c2cc(-c3ccccc3)no2)cc1
  Menin-MLL FL inh: -0.5[11.7 µM]
Cc1cn([C@H]2CC(F)[C@@H](CO)O2)c(=O)[nH]c1=O (stereo not given in full)
  Menin-MLL FL inh: -4.2
c1ccc2c(Nc3ccncc3)nc(-c3ccoc3)nc2c1
  Menin-MLL FL inh: 10.3
O=P(O)(O)C(O)(Cn1ccnc1)P(=O)(O)O
  Menin-MLL FL inh: -5.6
Nc1ncnc2c1ncn2[C@@H]1O[C@H](COP(=O)(O)OP(=O)(O)OP(=O)(O)OP(=O)(O)OC[C@@H]2O[C@H](n3cnc4c(N)ncnc43)[C@@H](O)[C@@H]2O)[C@H](O)[C@H]1O
  Menin-MLL FL inh: 2.3
C#CCOCCOCCOCCNc1nc(N2CCN(C(=O)[C@H](Cc3cc4ccccc4[nH]3)n3cc([C@@H](N)C(C)CC)nn3)CC2)nc(N2CCN(C(=O)[C@H](Cc3cc4ccccc4[nH]3)n3cc([C@@H](N)Cc4ccc(O)cc4)nn3)CC2)n1 (stereo not given in full)
  Menin-MLL FL inh: 4.1
NC(Cc1cnc[nH]1)C(=O)Nc1ccc2ccccc2c1 (stereo not given)
  Menin-MLL FL inh: 2.1
Cc1ccccc1CNc1ncnc2c1ncn2C1OC(CO)C(O)C1O (stereo not given)
  Menin-MLL FL inh: 0.3
COc1ccc(/C=C/C(=O)c2cccs2)c(OC)c1
  Menin-MLL FL inh: 0.5
O=C(O)c1nn(-c2ccccc2-c2n[nH]c(=O)[nH]c2=O)c(=O)[nH]c1=O
  Menin-MLL FL inh: -6.7
COc1ccc(-c2nc3cnc(N4CCOCC4)nc3n(CCC#N)c2=O)cc1
  Menin-MLL FL inh: u
COc1cc2c(cc1OC)C1O[C@](CCCCN3C(=O)c4ccccc4C3=O)(C2)OC2=C1C(=O)CC(C)(C)C2
  Menin-MLL FL inh: 14.9[11.7 µM]
COc1ccccc1Oc1c(NS(=O)(=O)c2ccc(C(C)(C)C)cc2)nc(-c2ncccn2)nc1OCCO
  Menin-MLL FL inh: 4.9
O=c1c(CCc2ccccc2)nc2cnc(N3CCOCC3)nc2n1Cc1ccc(F)cc1
  Menin-MLL FL inh: 10.8

(listing goes on)
structure	Menin-MLL FL inh
Cc1onc(-c2c(F)cccc2Cl)c1C(=O)N[C@@H]1C(=O)N2[C@H]1SC(C)(C)[C@H]2C(=O)O	-0.3
O=C(NCc1ccc2c(c1)OCO2)O[C@@H]1C(=O)c2cc(Br)ccc2O[C@H]1c1ccc2c(c1)OCO2	0.4
OC[C@@H]1O[C@@H](Oc2ccc(O)cc2)[C@H](O)[C@@H](O)[C@@H]1O	-0.8
C=CCc1cccc(C2NC(C(=O)O)CCC2C)c1 (stereo not given)	-5.0[11.7 µM]
CCCCCCN(C(=O)CCCCCN1C(=O)NC(c2ccc3ccccc3c2)C(C(=O)OCc2ccccc2)=C1C)C(C(=O)NCCCC)c1ccc(OCC(=O)OC)c(C(=O)OC)c1 (stereo not given)	3.5
CC(=O)N(O)C/C=C/c1cccc(Oc2ccccc2)c1	-5.0
CC1=C(C(=O)Nc2ccc(Cl)cc2)C2(CCCCC2)C(C(N)=O)C(=S)N1 (stereo not given)	8.1
CN(C)c1ccc(-c2cncnc2NCCc2cnc[nH]2)cc1	-0.1
CNC1=C(Cl)C(=O)c2ccncc2C1=O	-1.9
CCCCCOC(=O)Nc1nc(=O)n(C2O[C@H](C)[C@@H](O)[C@@H]2O)cc1F (stereo not given in full)	1.0

Structures listed so far containing a Cl atom (five):
structure	Menin-MLL FL inh
CCn1c(=N)c(S(=O)(=O)c2ccc(Cl)cc2)cc2c(=O)n3ccccc3nc21	0.7
COc1cccc(Nc2ncc3nc(-c4ccc(Cl)cc4)c(=O)n(C4CC4)c3n2)c1	u
Cc1onc(-c2c(F)cccc2Cl)c1C(=O)N[C@@H]1C(=O)N2[C@H]1SC(C)(C)[C@H]2C(=O)O	-0.3
CC1=C(C(=O)Nc2ccc(Cl)cc2)C2(CCCCC2)C(C(N)=O)C(=S)N1 (stereo not given)	8.1
CNC1=C(Cl)C(=O)c2ccncc2C1=O	-1.9

Continuation:
structure	Menin-MLL FL inh
O=c1c(-c2cccc(Cl)c2)nc2cncnc2n1Cc1ccc(F)cc1	1.4
COc1ccc(CCn2c(C)ccc2C)cc1OC	0.8
COc1ccc(-c2ccc(-c3nnc(-c4ccncc4)o3)cc2)cc1	2.4
CC(O)C(N)C(=O)O (stereo not given)	-1.6
CCCC(C)C(=O)OCC(=O)Nc1ccc(Br)cc1 (stereo not given)	-2.7
CCCCNC(=O)NS(=O)(=O)c1ccc(CO)cc1	-25.5
CC#CCN1c2ccccc2[C@]23C[C@@H](C(=O)OC)N(S(=O)(=O)c4ccc(C)cc4)C2=NC(C(=O)OC)=C(C(=O)OC)[C@H]13	0.5[11.7 µM]
COc1ccc(-c2nc3c(c4c2CC(C)OC4)CN(CCC(C)C)CC3)cc1 (stereo not given)	5.0[11.7 µM]
CCCCCCCCCCC(C)=O	5.3
c1cc2c(cc1C1CCCCC1)c1c3n2CCN[C@H]3CCC1	u

Among those listed so far, these contain a cyano group:
structure	Menin-MLL FL inh
C=CCN1CCN(c2nc3ccccc3nc2C#N)CC1	-1.6
COc1ccc(-c2nc3cnc(N4CCOCC4)nc3n(CCC#N)c2=O)cc1	u

(listing goes on)
structure	Menin-MLL FL inh
CO[C@@H]1COC(=O)C/C=C\[C@H](C)COC(=O)[C@H](Cc2ccccc2)NC(=O)C/C=C\[C@H]1C	-1.4[11.7 µM]
O=C(CSc1ncnc2c1cnn2CCc1ccccc1)Nc1ccc(F)cc1	3.3
CC(C)[C@@H](CC(=O)N[C@@H]1CCNC[C@H]1C(=O)N[C@H](CC(=O)N[C@@H](CCC(=O)O)CC(=O)O)Cc1ccccc1)NC(=O)C[C@H](Cc1c[nH]c2ccccc12)NC(=O)[C@@H]1CCCC[C@H]1N	-6.9
CC(C)N(Cc1ccc(F)cc1)C(=O)c1cc2ccccc2oc1=O	-6.1
Cc1cccc(CNc2ccnc(-c3ccccc3CN(C)C)n2)c1	4.8
CN1CCC2(CCN3CCc4c(oc5ccccc45)C3C2)N(C)C1=O (stereo not given)	0.2
Cc1nc2ccccc2n1CCc1nc2c3ccccc3nc(SCC#N)n2n1	-0.6
CN(C)CCCc1cc(C(=O)Nc2ccc(-c3ccncc3)cc2)ccc1O	-7.2
COc1ccc2[nH]cc(CCNc3cc(-c4c(C)noc4C)ncn3)c2c1	-0.1
C#CCOCCOCCOCCNc1nc(N2CCN(C(=O)[C@H](CCCCN)n3cc(C(N)COC(=O)C(F)(F)F)nn3)CC2)nc(N2CCN(C(=O)[C@H](CCCCN)n3cc(C(N)CC(C)C)nn3)CC2)n1 (stereo not given in full)	1.6
O=C(Oc1ccccc1)N1CCC2(CC1)CN(c1ccncc1)C2	0.2
Cc1ccccc1OCCOc1ccccc1C=C(C#N)C#N	4.2
CS(=O)(=O)Nc1cccc(-c2nc(Nc3ccncc3)c3ccccc3n2)c1	-0.9
CC1(C)Oc2ccc3ccc(=O)oc3c2/C(=C/NCCN/C=C2\C(=O)C(C)(C)Oc3ccc4ccc(=O)oc4c32)C1=O	0.8
COC(=O)N1CCC2(CC1)CN(c1ccccc1)C2	-0.5
O=C(N/N=C/c1cc([N+](=O)[O-])ccc1O)C1C2CCCCC21 (stereo not given)	1.4
c1ccc2c(c1)CC(N1CCN(c3cccc4c3OCCO4)CC1)C2	0.6&-2.9
CCC(C)c1cc([N+](=O)[O-])cc([N+](=O)[O-])c1OC(=O)OC(C)C (stereo not given)	-0.9
C=C(CCC12O[C@H](C(=O)O)[C@@](O)(C(=O)O)[C@](C(=O)O)(O1)[C@H](OC(=O)/C=C/[C@@H](C)C[C@@H](C)CC)[C@H]2O)[C@@H](OC(C)=O)[C@H](C)Cc1ccccc1	4.9
COC(=O)C/C=C\[C@@H](C)[C@@H](/C=N\O[C@@H]1O[C@H](COC(C)=O)[C@@H](OC(C)=O)[C@H](OC(C)=O)[C@H]1OC(C)=O)NS(=O)(=O)c1ccc(C)cc1	-0.3[11.7 µM]
COC(=O)C1(C(=O)OC)C[C@H]2CON=C2[C@H]1c1ccccc1	2.0&-5.6
CC(=O)C1=C(O)C(=O)N(Cc2cccnc2)C1c1ccc(C)cc1 (stereo not given)	-0.1
COc1ccc(/C=C2/SC(=O)N(CCC(=O)Nc3ccc(C)cc3)C2=O)cc1OC	0.5
COC(=O)N1C2=C(c3ccccc3[C@@H]1CC(=O)Nc1ccc3cc4ccccc4cc3c1)[C@@H]1C(=O)N(c3ccccc3)C(=O)[C@@H]1[C@H](C)C2	1.4[11.7 µM]
COC(=O)/C=C\CCc1coc(/C=C\CNC(=O)OC)n1	-0.5[11.7 µM]
Cc1c(C)c2c(c(C)c1OC(=O)c1cccnc1)CC[C@@](C)(CCC[C@H](C)CCC[C@H](C)CCCC(C)C)O2	-0.6&-3.9
Cc1ccc2c(c1)C1CCCC3C1N2CC(=O)N3Cc1ccccc1 (stereo not given)	-0.4
COc1cc(N2CCCC2)c(OC)cc1/C=c1/sc2nc3ccccc3n2c1=O	u
CCOc1ccc(NC(=S)N2CCn3c(nc4ccccc43)C2)cc1	-1.1
COc1ccc(-c2cc(=O)c3c(OC(C)=O)cc(OC(C)=O)cc3o2)cc1	0.1
COC(=O)c1ccc(C(NC(=O)OCc2ccccc2)/C(=C/[C@@H](C)C(=O)NCc2cc(C)n(C)n2)c2cccnc2)cc1 (stereo not given in full)	-4.9
O=C(c1cccnc1)N1CCC(c2nc3ccccc3[nH]2)CC1	-0.8
CCCCCCN(C(=O)CCCCCN1C(=O)NC(c2ccc(-c3ccccc3)cc2)C(C(=O)OCc2ccccc2)=C1C)C(C(=O)NCCCC)c1ccc(OCC(=O)OC)cc1 (stereo not given)	2.7&-0.5
CCN1C(=NCCc2cccs2)N[C@@H](CCc2ccccc2)[C@H](C(=O)NCCc2cccs2)[C@H]1C	0.4
